# LT uptake inh – anthrax lethal toxin internalization inhibition. Cells, anthrax lethal toxin internalization, FRET ratio (460/530). Potency, µM (highest dose often 40 µM), for inactives: at the top dose activity change, negative = inhibition, most hits filed as inhibitors. actives 0.67% (n = 70,000). AID 912; active = well fitted falling ratio curve with the 530 nm signal flat; inconclusive = other ratio curves, or a change in one channel alone; inactive = flat curves in the ratio and both channels; the % refers to the ratio; note: % is set by controls: 0 for no effect and ±100 for the full control effect; nearly all actives have a fitted effect of over 50% in size; tested in ME-180 cells; beta-lactamase reporter
# SmPrx2 inh – blocks S. mansoni peroxiredoxin 2 enzymatic activity; AID 448; actives 0.07% (n = 65,000); Potency, µM; S. mansoni Prx2 activity coupled to TGR/GSH (TGR is thioredoxin glutathione reductase), NADPH fluorescence loss, qHTS; some inactives read as strong as hits; active means full or partial inhibition curve with a strong effect at the top dose; inconclusive means weaker partial or single-point curve; inactive means no accepted curve; note: series up to 57 µM; many of its hits are not listed in these tables
#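 Purified S. mansoni TGR and Prx2 in pH 7.4 phosphate buffer with EDTA and Tween-20 were preincubated with compounds for 15 min. Further NADPH/GSH was added, then a 2.5 mM H2O2 aliquot initiated turnover, followed kinetically by NADPH fluorescence.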
# * = called active by the depositor; ? = inconclusive; nt = no result given; & = joins results of further samples; [ ] = remark or other dose. Potency is the fitted concentration of half-maximal effect.
SMILES,LT uptake inh,SmPrx2 inh
CS(=O)(=O)N1CCCC(C(=O)NCc2ccc(F)cc2)C1 (centres undefined),12%,>57
N/C(=N/O)c1nc(N2CCCCC2)nc(N2CCCCC2)n1,-4%,>57
O=C(N1CCOCC1)N1CCN(Cc2ccccc2)CC1,-4%,>57
COc1ccccc1CNc1ncncc1-c1ccccc1C(F)(F)F,-2%,>57
COC(=O)c1ccccc1NC(=O)COC(C)=O,?,?
O/N=C1\CC/C(=N\O)c2nn(-c3ccc(Cl)cc3Cl)nc21,-19%,>57
CCN1CCN(c2ncnc3sc(C(=O)Nc4ccccc4F)c(C)c23)CC1,7%,>57
COc1ccccc1C1C=C(c2ccc(C)cc2)Nc2nnnn21 (centres undefined),?,>57
Cc1ccc(S(=O)(=O)N2CCSC2c2ccco2)cc1 (centres undefined),-10%,>57
CCOC(=O)C1=C(C)NC(=S)NC1c1cccc(O)c1 (centres undefined),-12%,>57
CC1CC(C)CN(C(=O)CSc2nnc(-c3ccc(Cl)cc3)o2)C1 (centres undefined),-7%,>57
CCN(C(=O)c1ccnc(C(C)(C)C)c1)c1ccccc1,-6%,>57
O=C(Nc1ccc(N2CCN(C(=O)c3ccco3)CC2)cc1)c1cccc(F)c1,-7%,>57
COc1ccccc1Nc1ncnc2c1oc1ccccc12,nt,>57
CCOC(=O)C(C)n1nc(C)c2sc3ccccc3c2c1=O (centres undefined),-6%,>57
COc1ccccc1CCn1c(=O)c(-c2ccc(F)cc2)nc2cncnc21,-8%,>57
Cc1nc(N2CCN(Cc3nc4ccccc4[nH]3)CC2)c2oc3ccccc3c2n1,?,>57
CN(C)C(=O)c1ccc(-c2ccc3ncnc(NCc4ccccc4)c3c2)cc1,11%,>57
COc1ccc2[nH]c(=O)c(CN(C(=O)c3ccco3)C3CCCCC3)cc2c1,-8%,>57
CCCc1ccc(OCc2ccc(C(=O)OC)o2)c(OC)c1,-7%,>57
Cc1csc(NC(=O)c2cnccn2)n1,2%,>57
O=C(CSc1nnc(-c2cccnc2)o1)Nc1ccccn1,-14%,>57
CSc1nnc(Cn2c(=O)sc3ccccc32)n1CCc1ccccc1,-23%,>57
Cc1cccc(CCNC(=O)CCc2nc(-c3ccccc3F)no2)c1,0%,>57

# In the list so far, two have an NH in an aromatic ring:
SMILES,LT uptake inh,SmPrx2 inh
Cc1nc(N2CCN(Cc3nc4ccccc4[nH]3)CC2)c2oc3ccccc3c2n1,?,>57
COc1ccc2[nH]c(=O)c(CN(C(=O)c3ccco3)C3CCCCC3)cc2c1,-8%,>57

# Later entries
SMILES,LT uptake inh,SmPrx2 inh
CCn1c(=O)cc(SCC(=O)Nc2ccc3c(c2)OCO3)c2ccccc21,-1%,>57
Cc1noc(NS(=O)(=O)c2ccc(NC(=O)Nc3ccc(Cl)c(Cl)c3)cc2)c1C,?,>57
COc1cccc(-c2noc(N)c2C#N)c1,nt,>57
CCOC(=O)C1CCN(c2c(NCCCN(C)C3CCCCC3)c(=O)c2=O)CC1,8%,>57
CN(C)C(=O)c1ccc(-c2nc(Nc3ccccc3)c3ccccc3n2)cc1,?,>57
Cc1cccc(N2CCN(C(=O)c3ccc(N4CCCC4=O)cc3)CC2C)c1 (centres undefined),2%,>57
O=C(CSc1nc(O)c(Cc2ccccc2)c(=O)[nH]1)Nc1ccccc1,10%,nt
Cc1ccnc(SCCn2c(N(C)Cc3ccccc3)nc3c2c(=O)n(C)c(=O)n3C)n1,8%,>57
COc1ccccc1CNC(=O)Cn1cnc2ccccc2c1=O,-4%,>57
O=C(O)c1cccc(N=Nc2c(S(=O)(=O)O)ccc3c2C(=O)c2ccccc2C3=O)c1O,-2%[8 µM],>57
COc1ccc(-c2nc(-c3ccncc3)no2)cc1OC,-1%,>57
N=c1sc2ccccc2n1CCS (tested in a mixture with another compound),2%[8 µM],>57
CC(c1ccccc1)n1cc(C(=O)NCC2COc3ccccc3O2)nn1 (centres undefined),-6%,>57
COc1ccccc1NC(=O)N1CCN(c2cccc(C(F)(F)F)c2)CC1,-20%,>57
O=C(CCn1c(=O)[nH]c2ccccc2c1=O)Nc1ccccc1,-4%,>57
Cc1nc(SCC(=O)N2CCCc3ccccc32)c2oc3ccccc3c2n1,8%,>57
Cc1ccc(OCC(O)CN2CCN(CC(O)COc3ccc(C)cc3)CC2)cc1 (centres undefined),8%,>57
COc1ccc(C2(O)CCN(C(=O)Cc3cccnc3)CC2)cc1,-3%,>57
COc1cccc(/C=C/C2=CC3(C)CC2(C)C(c2cccc(OC)c2)CC3=O)c1 (centres undefined),-24%[8 µM],nt
CC(=O)c1c(C)nn(CC(O)Cn2c3c(c4cc(C)ccc42)CCCC3=O)c1C (centres undefined),?,>57
O=C(Cn1cnc2c(cnn2-c2ccccc2)c1=O)NCCc1ccccc1,0%,>57
Cc1ccc(-c2nnn(CC(=O)Nc3ccccc3-c3ccccc3)n2)c(-n2cnnn2)c1,-24%,>57
O=C(Nc1ccccn1)c1ccc2ccccc2n1,-6%,>57
O=c1cc(-c2ccccc2)nc(N2CCCCC2)[nH]1,-10%,>57
COc1cccc(C(=O)Nc2cccc(SC)c2)c1,?,nt
CC(C)C(c1nnnn1C1CCCCC1)N1CCN(c2ncccn2)CC1 (centres undefined),8%,>57
Cc1cccc(-c2nc(CS(=O)CC(=O)NC3CCCC3)c(C)o2)c1 (centres undefined),0%,>57
O=C(CN(Cc1ccccc1F)C(=O)Cn1nnc(-c2cccs2)n1)NCC1CCCO1 (centres undefined),7%,>57
COCCn1c(COc2cccc(OC)c2)nnc1SCC(=O)N1CCOCC1,-4%,>57
Clc1ccccc1-c1nnc2sc(-c3ccc(Br)o3)nn12,13%,>57
CC(=O)N(CCN(C(C)=O)c1ccccc1)c1ccccc1,-2%,nt
CS(=O)(=O)N(CC(=O)N1CCOCC1)Cc1ccc(Cl)cc1,-2%,>57
COc1ccc2c(C)nc(Nc3nc(C)cc(=O)[nH]3)nc2c1,11%,>57
COC(=O)c1ccc(NC(=O)c2cnc3scc(C)n3c2=O)cc1,-1%,>57
COc1cc2c(cc1OC)CN(C(=O)Cc1ccc(OC)c(S(=O)(=O)N3CCOCC3)c1)CC2,20%,>57
Oc1ccc2c(c1)OCO2,3%,nt
COC(=O)C(C)C1Sc2ccccc2NC1=O (centres undefined),-11%,>57
CCOC(=O)N1CCN(C(=O)c2oc3ccc(S(=O)(=O)N4CC(C)CC(C)C4)cc3c2C)CC1 (centres undefined),-8%,>57
Cn1c(=O)c2c(nc(SCCCC#N)n2Cc2ccccc2F)n(C)c1=O,4%,>57
Cc1ccc(NC(=O)NC(=O)CSc2nnnn2C)c(C)c1,14%,>57
CC(C)OP(=O)(c1ccc(N(C)C)cc1)C(O)c1c(Cl)cccc1Cl (centres undefined),nt,?
Brc1ccc2c(c1)c1nc3ccccc3nc1n2CCN1CCOCC1,-3%,>57
c1ccc2c(c1)Cn1nc(Cc3nc4c(s3)CCCC4)nc1-2,8%,>57
O=C(CSc1nnc2scc(-c3ccc(Cl)cc3)n12)NCc1ccco1,-14%,>57
COC(=O)[C@@]1(Cc2ccc(F)cc2)[C@@H]2C(=CC(=O)[C@H]2CC(=O)C(=O)N(C)C)CN1C(=O)c1ccccc1,?,>11
CC1(C)CC(=O)CC(=Nc2ccc3[nH]c(=O)[nH]c3c2)C1,-7%,nt
O=C(Nc1cc(C(F)(F)F)ccc1N1CCOCC1)c1c(F)c(F)c(F)c(F)c1F,14%,>57
COC(=O)C(C(=O)Nc1ccccc1C)C1CCCC1 (centres undefined),-5%,nt
Cc1ccc(C)c(N2CCN(S(=O)(=O)c3ccc4c(c3)OCCO4)CC2)c1,-6%,>57
CC(C)NC(=O)c1cc(-c2ccco2)on1,11%,>57
CC(=NCCCN1CCOCC1)c1c(O)n(-c2ccccc2C)c(=O)[nH]c1=O,nt,>57
CCN(CC)S(=O)(=O)c1ccc(C(=O)Oc2ccc3c(c2)OCO3)cc1,0%,>57
CCOC(=O)CN(C(=O)CSc1nnc(CNc2ccc(C)cc2C)o1)c1ccccc1,-12%,>57
CCNc1ncc2nc(-c3ccccc3)c(=O)n(C[C@H]3CCCO3)c2n1,?,>57
CC1=C(C(=O)Nc2ccccc2)C(c2ccc3c(c2)OCO3)C2=C(CCCC2=O)N1 (centres undefined),-4%,>57
O=C(NC1CCCCCC1)c1nc2ncccn2n1,-7%,>57
CC(=O)Nc1ccc(S(=O)(=O)N2CCN(C3CCCCCCC3)CC2)cc1,-20%,>57
COC(=O)c1ccccc1NC(=O)COC(=O)c1ccco1,-19%,>57
CC(C)CC1(C(=O)NCC2CC2)C=CCN1C(=O)c1ccccc1 (centres undefined),-11%,nt
CCN(CC)C(=O)CSc1ncnc2c1cnn2Cc1ccccc1,-1%,>57

# Some of the entries so far, with bars between the fields.
structure | LT uptake inh | SmPrx2 inh
CC(C)NC(=O)c1cc(-c2ccco2)on1 | 11% | >57
CC(=NCCCN1CCOCC1)c1c(O)n(-c2ccccc2C)c(=O)[nH]c1=O | nt | >57
CCN(CC)S(=O)(=O)c1ccc(C(=O)Oc2ccc3c(c2)OCO3)cc1 | 0% | >57
CCOC(=O)CN(C(=O)CSc1nnc(CNc2ccc(C)cc2C)o1)c1ccccc1 | -12% | >57
CCNc1ncc2nc(-c3ccccc3)c(=O)n(C[C@H]3CCCO3)c2n1 | ? | >57
CC1=C(C(=O)Nc2ccccc2)C(c2ccc3c(c2)OCO3)C2=C(CCCC2=O)N1 (centres undefined) | -4% | >57

# Further compounds
SMILES,LT uptake inh,SmPrx2 inh
CC(C)=NO[C@@H](C)c1cc(-c2c(C)cc(C)cc2C)no1,15%[8 µM],nt
CC1Cc2nc(SCC(=O)NCCc3ccccc3)n(C)c(=O)c2S1 (centres undefined),18%,>57
O=C(Nc1ccccc1)C1CC2CCCC(C1)C2=O (centres undefined),-11%,>57
O=C(c1ccccn1)N(Cc1cc2ccccc2[nH]c1=O)C1CCCCC1,-3%,>57
O=C(OCCNC(=O)c1ccc2ccccc2n1)c1cccnc1,6%,nt
CCCCCOC(=O)Cn1c(SCC(=O)Nc2ccccc2)nc2c1c(=O)[nH]c(=O)n2C,1%,>57
O=C(COC(=O)C1CC(=O)N(c2ccc3c(c2)OCCO3)C1)Nc1ccc2c(c1)CCC2 (centres undefined),10%,>57
CCOCCCNCC(=O)Nc1ccccc1N1CCOCC1,-4%,>57
CC(C)(C)c1ccccc1NC(=O)c1ccco1,-8%,>57
CCOc1ccccc1N(CC(=O)N1CCOCC1)S(=O)(=O)c1ccccc1,-13%,>57
CCOC(=O)CSc1nnc(CNC(=O)c2ccco2)n1-c1ccc(F)cc1,-8%,>57
Cc1ccccc1-c1cc(N2CCN(C)CC2)ncn1,11%,>57

# Compound profiles (already shown):
# CCOCCCNCC(=O)Nc1ccccc1N1CCOCC1 is entered as LT uptake inh: -4%; SmPrx2 inh: >57
# CCOc1ccccc1N(CC(=O)N1CCOCC1)S(=O)(=O)c1ccccc1 is entered as LT uptake inh: -13%; SmPrx2 inh: >57
# CCCCCOC(=O)Cn1c(SCC(=O)Nc2ccccc2)nc2c1c(=O)[nH]c(=O)n2C is entered as LT uptake inh: 1%; SmPrx2 inh: >57

# Later entries
SMILES,LT uptake inh,SmPrx2 inh
COc1cc2c(cc1OC)C1(CCCC1)CNC2C (centres undefined),-29%,>57
CC(C)C[C@@H](CC(=O)N[C@H](CC(=O)N[C@@H]1CCCC[C@H]1C(=O)N[C@H](CC(=O)N[C@@H](CCC(=O)O)CC(=O)O)Cc1c[nH]c2ccccc12)C(C)C)NC(=O)[C@@H]1CCCC[C@H]1N,-17%,>57
COc1ccc(Cn2cccc(NC(=O)Nc3ccc(C#N)cc3)c2=O)cc1,-6%,>57
Cc1ccccc1NC(=O)CNc1ccccc1N1CCCCC1,?,>57
O[C@@H]1CCCC[C@H]1N1CCC(c2ccccc2)CC1,-11%,>57&>57
CCOC(=O)CNc1nc(C(C)(C)C)nc2c1nnn2Cc1ccccc1Cl,-6%,>57
O=C(NCc1ccc(F)cc1)C(c1cccs1)N(C(=O)c1csnn1)C1CC1 (centres undefined),-4%,>57
COc1ccc2oc(C(=O)CCC(=O)O)c(N)c2c1,1%,>57
O=C1[C@H]2[C@H]3[C@H](O)[C@H](O)C/C(=N/OC[C@@H](O)COCc4ccco4)[C@H]3CC[C@@H]2C(=O)N1C[C@@H]1CCCO1,-9%[1.6 µM],nt
COc1ccc(C)cc1NS(=O)(=O)c1cccc2nonc12,4%,>57
Cc1cc(C)n2nc(SCC(=O)NCc3ccco3)nc2n1,?,>57
CC(C)CCn1cnc2c([nH]c3cccc(Cl)c32)c1=O,14%,>57
CCCN(CCC)CCc1cccc2c1CC(=O)N2,-3%,>57
Cn1nc(CC(=O)Nc2ncc(Br)s2)c2ccccc2c1=O,?,>57
CCCN1C2CCCC1CC(NC(=O)c1ccccc1)C2 (centres undefined),2%,>57
c1ccc2c([C@@H]3CCN(CCN4CCOCC4)C3)c[nH]c2c1,?,>57
CC(=O)Nc1cccc(-c2csc(NCc3ccco3)n2)c1,-2%,>57
CCOCCCn1c(=NC(C)=O)c(C(=O)OCC)cc2c(=O)n3ccccc3nc21,?,>57
Cc1nnc2n1NC(c1ccc(Cl)cc1)C(C(=O)N(C)C1CCCCC1)S2 (centres undefined),-9%,>57
COC(=O)c1c(NC(=O)Cc2cccs2)sc(C(=O)N2CCCCC2)c1C,-11%,>57
COc1ccc(NC(=O)N2CC3(CCN(C(=O)c4ccco4)CC3)C2)cc1,-2%,>57
O=C(O)c1ccc(NC(=O)c2cccs2)cc1,-7%,>57

# The list is partial (hit frequency here may not be typical).
